Compound activity: PubChem BioAssay, National Center for Advancing Translational Sciences (NCATS)
KCNH2 3.1 block = inhibitors of human KCNH2 3.1 potassium channel isoform | U2OS KCNH2 3.1, thallium flux FluxOr; active compounds read low | activity change, % (tested at about 1.8 µM) | 340,000 tested, 0.95% active;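 active means maximum activity change below -70%; inconclusive means maximum activity change from -70% to -50%; inactive means maximum activity change above -50%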;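 further: thallium influx rate constant from kinetic fluorescence after stimulation buffer; on the % scale 0 is the no-effect control and ±100 the full control effect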
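Kinetic fluorescence (2 min after stimulation buffer) measures Tl+ influx through KCNH2 3.1 expressed by viral transduction in U2OS cells; the rate constant is normalized against DMSO controls serving as positive and negative references.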
GALK inhibitor = inhibitors of human galactokinase. Purified GALK, Kinase-Glo residual ATP luminescence. Potency, µM (highest dose often 57.5 µM), inactives show at the top dose activity change, negative = inhibition, hits mostly inhibitors. 270,000 tested, 0.007% active. AID 1868; further: potency means the concentration at half of the fitted maximal effect; on the % scale 0 is the no-effect control and ±100 the full control effect
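Compounds were pin-transferred into ATP buffer (35 uM final), then GALK plus galactose (5 nM, 100 uM final) was added. After 1 h at room temperature, Kinase-Glo Plus was added and luminescence read after 10 min.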
S-ASM inh = human S-ASM enzyme inhibition | P17405 | placental ASM, HMU-PC fluorogenic substrate, 60 min | Potency, µM (titrated, usually from 57.5 µM), for inactives: at the highest dose activity change, negative = inhibition, hits mostly inhibitors | 340,000 tested, 0.006% active; further: potency means the concentration at half of the fitted maximal effect
Target sequence (P17405 47-631 limits assumed): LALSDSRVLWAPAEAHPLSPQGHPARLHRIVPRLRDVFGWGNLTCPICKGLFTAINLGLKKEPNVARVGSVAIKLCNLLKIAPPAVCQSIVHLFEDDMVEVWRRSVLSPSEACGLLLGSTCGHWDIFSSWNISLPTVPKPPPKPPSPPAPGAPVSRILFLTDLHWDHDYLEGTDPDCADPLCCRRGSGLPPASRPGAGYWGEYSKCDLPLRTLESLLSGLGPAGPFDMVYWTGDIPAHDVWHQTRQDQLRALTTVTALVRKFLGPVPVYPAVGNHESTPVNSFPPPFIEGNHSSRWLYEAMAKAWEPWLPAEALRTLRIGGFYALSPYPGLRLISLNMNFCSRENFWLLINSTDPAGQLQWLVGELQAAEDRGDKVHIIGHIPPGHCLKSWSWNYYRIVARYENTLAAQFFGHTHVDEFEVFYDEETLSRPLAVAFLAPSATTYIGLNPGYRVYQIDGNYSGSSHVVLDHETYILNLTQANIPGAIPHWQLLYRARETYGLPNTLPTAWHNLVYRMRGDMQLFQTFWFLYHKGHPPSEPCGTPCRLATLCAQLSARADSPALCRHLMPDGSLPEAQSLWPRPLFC
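Human placenta-derived ASM enzyme was preincubated with compound for 10 minutes at room temperature, then given fluorogenic substrate HMU-PC0 (9 uM final) for 60 minutes at 37 °C; a pH 10 stop preceded fluorescence reading at Ex 386/Em 447 nm.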
A-T KAP1 phos = potential ataxia-telangiectasia treatment. […] A-T fibroblasts, KAP-1 phosphorylation AlphaLISA; neocarzinostatin DNA damage 30 min before lysis. Potency, µM (doses to about 57.5 µM), for inactives: at the top dose activation, hits mostly activators. 320,000 tested, 0.19% active. AID 485349; further: potency means the concentration at half of the fitted maximal effect; % of control where 0% means no effect; nearly all actives have a fitted effect of over 45% in size
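ATM-like activity read as KAP-1 phosphorylation via AlphaLISA donor/acceptor antibody pairs after lysis and 6 hr at 25C. Cells were ATM-null patient fibroblasts ([…], hTERT), dosed 60 min, then exposed to the DSB inducer NCS for 30 min.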
hERG WT inh = inhibitors of human wildtype KCNH2 potassium channel | Q12809 | U2OS, BacMam KCNH2, thallium flux FluxOr; active compounds read low | activity change, % at 1.84 µM | 340,000 tested, 0.37% active;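 active means maximum activity change below -70%; inconclusive means maximum activity change between -70% and -50%; inactive means maximum activity change above -50%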; further: on the % scale 0 is the no-effect control and ±100 the full control effect
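U2OS cells were transduced with wild-type KCNH2 virus (2.03 x 10^8 / mL) for 4 h at room temperature, then cultured overnight at 37 C. Thallium flux was read with FluxOr dye. Rate constants were normalized to DMSO controls.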
Integrin act MD = activates integrin-mediated alleviation for muscular dystrophy; alpha7betagal myoblasts, beta-gal FDG fluorescence, 48 h; Potency, µM (titrated, usually from 38.3 µM), for inactives: at the top dose activation, usual class: activators; 350,000 tested, 0.064% active; AID 624291;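 further: potency means the concentration at half of the fitted maximal effect; 100% = response of the positive control SU9516; nearly all actives have a fitted effect of over 60% in size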
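alpha7betagal+/- myoblasts (passage 13, 250/well) treated 48 h at 37C with compounds at 1:260 dilution of DMSO stock. Lysed, then beta-galactosidase activity read as FDG fluorescence (ex 480/em 540) after 30 min, with pre-read for autofluorescence.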
Coupling enz = coupling enzyme interference in Giardia aldolase counter-screen | activity change, negative = inhibition, % at 58.2 µM, hits read low | coupling enzyme system counterscreen, AmpLite Red fluorescence | 290,000 tested, 0.67% active; in the data active means activity change below about -30%; further: on the % scale 0 is the no-effect control and ±100 the full control effect
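Counterscreen lacking aldolase: glyceraldehyde-3-phosphate coupling-enzyme reagent preincubated 10 min at RT with compound (at 57.5 uM final), then substrate/coupling system with AmpLite Red added; fluorescence read at 525/598 nm after 20 min RT.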
TRPV1 ag = agonists of human vanilloid receptor 1 (TRPV1); TRPV1-expressing cells, Fluo-8 calcium influx, agonist mode; activation, % at 8.33 µM; 320,000 tested, 0.19% active; AID 540275; in the data active means activation above about 80%; inconclusive means between about 30% and that limit; further: 0% is about no effect
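Fluo-8 calcium influx in TRPV1-expressing cells, kinetic read (ex 480/em 520 nm). Compound added and read 3 min for agonist activity, followed by capsaicin at EC20 final and 2 min further read for enhancement.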
MBNL1-CUG inh = inhibitors of human MBNL1 binding to CUG repeat RNA; Q9NR56; 280,000 tested, 0.036% active; Potency, µM (doses to about 57.5 µM), for inactives: at the top dose activity change, negative = inhibition, hits mostly inhibitors; TR-FRET MBNL1-His/biotin-(CUG)12 binding, 665/545 ratio; active means well fitted inhibition curve with a large enough effect in the signal ratio, with a control signal flat, not every such curve was filed as active; inconclusive means small, poorly fitted or top-dose-only effect, or effect the other way, or a change in a side signal; inactive means no such curve, though single readings can be large or run the other way; the % refers to the signal ratio; further: potency means the concentration at half of the fitted maximal effect; on the % scale 0 is the no-effect control and ±100 the full control effect
Target sequence (Q9NR56 whole entry, looked up): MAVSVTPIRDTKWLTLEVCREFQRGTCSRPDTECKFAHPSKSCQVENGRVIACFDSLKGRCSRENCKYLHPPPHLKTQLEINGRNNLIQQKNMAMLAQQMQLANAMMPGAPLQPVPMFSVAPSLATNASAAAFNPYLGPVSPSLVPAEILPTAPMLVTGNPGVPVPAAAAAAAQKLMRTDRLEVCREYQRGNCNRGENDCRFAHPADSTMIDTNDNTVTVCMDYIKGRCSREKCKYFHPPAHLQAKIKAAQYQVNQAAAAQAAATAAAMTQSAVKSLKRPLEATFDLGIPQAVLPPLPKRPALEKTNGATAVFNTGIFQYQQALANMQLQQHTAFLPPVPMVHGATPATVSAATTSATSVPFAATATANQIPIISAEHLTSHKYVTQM
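MBNL1-His + Biotin-(CUG)12, cpd titration 92 nM–58 uM; Tb anti-His Ab 0.055 ng/ul, SA-XL665 5 nM (final); 60 min RT; ratiometric 665/545 nm, Ex 340 nm; normalized to buffer and full-complex controls.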
Numbers without * were called inactive; i = inactive; ? = inconclusive; · = no result given; [ ] = another dose, or the depositor's remark. Unless noted, the call rests on the fitted dose curve; in most records, active means well fitted curve in the direction sought with a large enough effect; inconclusive means small, poorly fitted or top-dose-only effect, or another doubt; inactive means no such curve, though single readings can be large; an effect the other way counts as inactive or inconclusive. A portion of the library. The share of hits here may be higher or lower than overall.

SMILES	KCNH2 3.1 block	GALK inhibitor	S-ASM inh	A-T KAP1 phos	hERG WT inh	Integrin act MD	Coupling enz	TRPV1 ag	MBNL1-CUG inh
CN(C)CCCNc1nc(N)c([N+](=O)[O-])c(NC2CCCCC2)n1	-1	·	-3%	6%	6	-68%[inhibitor]	-2	3	13%
COc1ccc(NC(=O)C(=O)Nc2cccc3cccnc23)c(OC)c1	-11	4%	0%	-10%	-5	24%	0	-4	1%
CCOC(=O)/C(=N/O)C1=NC(C)(C)Cc2cc(C)c(C)cc21	2	5%	0%	0%	0	-3%	1	3	6%
Cc1nc(NC(C)C)c2oc3ccccc3c2n1	-15	2%	-2%	2%	-5	-37%	-1	?	-10%
O=C(Nc1cccc2ccccc12)c1cn(-c2ccccc2)nc1-c1cccs1	-25	-4%	-5%	1%	-13	-24%	·	3	2%
O=C(N/N=C/c1ccc(OC(=O)c2ccc3c(c2)OCO3)cc1)c1cncc(Br)c1	-23	2%	-16%	0%	2	16%	4	-5	-3%
COc1ccc(OC)c(/C=N/NC(=O)c2csc3ccccc23)c1	-21	·	106%[activator]	-1%	5	-5%	-2	-1	12%
COc1ccc(NC(=O)c2ccccc2SC)cc1	11	-1%	-1%	3%	i	21%	-11	4	-15%
Cc1ccc(SCCNC(=O)/C=C/c2ccc(Cl)cc2)cc1	-14	2%	-4%	5%	-9	6%	1	?	·
CCOc1ccc(NC(=O)C2CC(=O)NC(N3CCc4ccccc43)=N2)cc1 (stereo not given)	18	-1%	0%	2%	-4	-9%	-3	-3	-25%
COc1cccc2c1C(=O)c1c(O)c3c(c(O)c1C2=O)C[C@@](O)(C(=O)CO)C[C@@H]3O[C@H]1C[C@H](N)[C@H](O)[C@H](C)O1	-23	·	5%	-20%	-8	·	-40*	6	?
COc1ccc(CNCCC(c2ccc(OC(C)C)cc2)c2ccccc2OC)cc1OC (stereo not given)	-82*	5%	-2%	3%	-45	-22%	-2	23	-9%
CCN(CC)c1nc(Oc2ccc(C(=O)NN)cc2)nc(Oc2ccc(C(=O)NN)cc2)n1	16	·	3%	8%	-3	?	1	2	1%
O=C(COc1ncnc2ccccc12)c1ccc2c(c1)OCCO2	0	3%	0%	5%	-7	6%	0	2	-2%
O=C(NC(=S)Nc1cccc(NC(=S)NC(=O)c2ccco2)n1)c1ccco1	-4	10%	-2%	6%	-3	-28%	0	2	7%
CC(C)c1cc(C(=O)Nc2cc(Br)ccc2O)no1	-13	-2%	-2%	5%	3	15%	-3	4	2%
O=C(c1ccccc1Cl)N(C(=O)c1ccccc1Cl)c1nccc(-c2cccs2)n1	1	1%	-1%	0%	4	?	-42*	-2	0%
Cc1c(C(=O)Nc2nccs2)sc2nc(-c3cccs3)cc(C(F)(F)F)c12	1	-2%	52%[activator]	-1%	11	-19%[7.66 µM]	·	2	-9%
CCOC(=O)c1nc2cc3n(c(CC(C)C)c-2c1C)CC(C)=C3C	-11	-4%	69%[activator]	4%	-3	-41%[inhibitor]	-6	1	?
O=C(NC(=S)N1CCCc2ccccc21)c1ccc(Br)cc1	6	1%	9%	3%	-13	-29%	-14	4	9%
Cc1cccc2cc(CN(Cc3ccco3)C(=O)c3ccncc3)c(=O)[nH]c12	-11	1%	2%	8%	-3	-4%	0	-1	-1%
CSc1ncc(C(=O)Nc2cccc(S(N)(=O)=O)c2)n1-c1ccccc1	-6	11%	11%	-1%	-5	25%	5	-1	0%
Cc1ccc(NC(=O)COc2ccc(/C=C3/NC(=O)NC3=O)cc2)cc1	-7	0%	-5%	-3%	5	25%	-1	10	13%
COc1cc2c(cc1OC)C1(CCCC1)CNC2c1ccc([N+](=O)[O-])cc1 (stereo not given)	-17	-1%	0%	-9%	1	-5%	0	2	15%
C=CCSc1nc(C)c(Cc2cccc3ccccc23)c(=O)[nH]1	1	-1%	-11%	-9%	-13	-3%	10	1	-4%
COc1ccc(-c2c(NCCc3ccccc3)c(=O)c2=O)cc1	1	·	-4%	-7%	-19	-1%	1	1	0%
Cn1c(SCC(=O)NC2CC2)nnc1C(F)(F)F	2	1%	0%	2%	0	6%	2	-2	0%
Nc1nonc1-n1nnc(C(=O)N/N=C/c2ccco2)c1CSc1ccccc1	7	4%	2%	-3%	19	?	6	-2	-4%
Cc1cc(C)c(N=C2C(=O)Nc3ccccc32)c(C)c1	23	·	-1%	83%	-3	13%	0	3	?
O=C(Nc1cccc(O)c1)C(Cc1ccccc1)N1C(=O)c2cccc3cccc(c23)C1=O (stereo not given)	-11	0%	-7%	-7%	-9	-27%	-1	20	·

Quoted at random: 5 compounds from above, in no set order.
SMILES	KCNH2 3.1 block	GALK inhibitor	S-ASM inh	A-T KAP1 phos	hERG WT inh	Integrin act MD	Coupling enz	TRPV1 ag	MBNL1-CUG inh
COc1ccc(NC(=O)C(=O)Nc2cccc3cccnc23)c(OC)c1	-11	4%	0%	-10%	-5	24%	0	-4	1%
O=C(Nc1cccc(O)c1)C(Cc1ccccc1)N1C(=O)c2cccc3cccc(c23)C1=O (stereo not given)	-11	0%	-7%	-7%	-9	-27%	-1	20	·
Cc1cccc2cc(CN(Cc3ccco3)C(=O)c3ccncc3)c(=O)[nH]c12	-11	1%	2%	8%	-3	-4%	0	-1	-1%
COc1cccc2c1C(=O)c1c(O)c3c(c(O)c1C2=O)C[C@@](O)(C(=O)CO)C[C@@H]3O[C@H]1C[C@H](N)[C@H](O)[C@H](C)O1	-23	·	5%	-20%	-8	·	-40*	6	?
O=C(c1ccccc1Cl)N(C(=O)c1ccccc1Cl)c1nccc(-c2cccs2)n1	1	1%	-1%	0%	4	?	-42*	-2	0%

Carrying on.
SMILES	KCNH2 3.1 block	GALK inhibitor	S-ASM inh	A-T KAP1 phos	hERG WT inh	Integrin act MD	Coupling enz	TRPV1 ag	MBNL1-CUG inh
COc1cccc(C2CC(c3cccs3)=NN2C(=S)Nc2ccccc2)c1OC (stereo not given)	-1	-1%	6%	-7%	-11	3%	-1	0	10%
CCCc1cnc(N2CCN(C(=O)c3ccc(F)cc3)CC2)nc1	-15	11%	0%	-7%	-4	4%	2	?	-3%
Cc1c(C(=O)Nc2ccc(Cl)cc2)c2ccccn2c1C(=O)c1ccc([N+](=O)[O-])cc1	13	0%	-18%	·	-3	23%	-2	0	7%
COc1ccc(CC(=O)Nc2ccc(-c3noc(COc4ccccc4C)n3)cc2)cc1	8	0%	-1%	-8%	-3	6%	3	4	-5%
C/C(=N\NC(=O)c1ccc([N+](=O)[O-])cc1)c1c(O)cc(C)oc1=O	11	7%	-1%	-4%	-1	-2%	3	?	?
COc1cc(C(=O)Nc2cc(C)nn2-c2ccccc2)cc(OC)c1OC	1	-3%	3%	-5%	-4	6%	-1	-3	-4%
Nc1nc(-c2ccc(Cl)cc2)nnc1-c1ccc(Br)cc1	-36	7%	2%	-4%	1	-28%	1	-2	235%[activator]
Cn1nc(C(=O)Nc2ccc(Br)cc2)cc1C(=O)Nc1ccc(Br)cc1	5	·	-1%	16%	-28	-5%	-4	0	-5%
O=C(Cc1ccccc1)NC(NC(=S)Nc1cc(Cl)ccc1Cl)C(Cl)(Cl)Cl (stereo not given)	2	2%	-1%	-6%	13	-21%	0	-1	1%
CCN(CC)C(=O)CSc1nc(-c2ccc(C)cc2)nc2c1COC(C)(C)C2	-9	1%	0%	-3%	0	-22%	0	?	-1%
CCc1cc(-c2[nH]ncc2-c2ccc([N+](=O)[O-])cc2)c(O)cc1OC	-17	-1%	-27%	20%	-13	44%	-5	13	9%
COCCCN1C(=O)C(=O)/C(=C(/O)c2ccc(OC)cc2C)C1c1cccnc1 (stereo not given)	-6	4%	3%	-6%	-24	-5%	0	-2	11%
CCC(C)NC(=O)c1c(N)n(/N=C/c2cccs2)c2nc3ccccc3nc12 (stereo not given)	·	1%	·	1%	·	·	5	-2	22%
Fc1ccccc1/C=N/Nc1nc2ccccc2o1	11	·	-1%	-10%	3	-57%[inhibitor]	-4	-4	18%
CCCN1CCc2c(sc(NC(=S)NC(=O)c3ccccc3)c2C#N)C1	-3	1%	1%	0%	-18	11%	1	7	?
Cc1ccc(/C=C2/Sc3ccc(C(=O)N4CCN(c5ccccn5)CC4)cc3NC2=O)cc1	0	7%	2%	1%	40	-7%	0	-3	-1%
Cc1ccc(C2=NN(CC(=O)NCCN(CC(C)C)CC(C)C)C(=O)CC2)cc1	-5	·	-1%	28%	12	-30%	2	3	-5%
Cc1ccc(CSc2nc(N)cc(=O)[nH]2)cc1	-8	0%	3%	-16%	-7	-3%	1	5	-2%
NS(=O)(=O)c1ccc(NC(=O)CSc2nnc(COc3ccccc3Cl)n2C2CC2)cc1	-18	0%	-7%	0%	-7	-9%	7	-1	-2%
COc1ccc(NC(=O)c2cn(-c3ccccc3)nc2-c2cc3ccccc3o2)cc1	-21	-4%	-9%	0%	5	13%	0	17	2%
O=C1c2oc3ccccc3c(=O)c2C(c2ccc(O)cc2)N1c1nccs1 (stereo not given)	-2	-5%	8%	0%	-8	-7%	0	-1	16%
